Calb FLC: affects C. albicans growth with fluconazole | growth inhibition, % (concentration not given with the values) | C. albicans CaCi-2 (fluconazole-resistant clinical isolate) + fluconazole, Alamar Blue growth, 48 h | AID 1979 | actives 0.57% (n = 300,000);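 active = most replicates above 75%; inconclusive = exactly half above 75%; inactive = most below 75%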;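 also: all wells also contain fluconazole at 8 µg/ml as a sub-toxic cotreatment; 0% = median of DMSO wells and 100% = median of geldanamycin control wells; wells of about 8 µL received 7.5 nL stock; the first replicate is given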
Beta2AR agonist: human beta-2 adrenergic receptor agonism by FAP; P07550; Am2.2-beta2AR cells, FAP receptor internalization, flow cytometry; reference of the scale not given here; response, % (test concentration not listed); actives 0.43% (n = 340,000); AID 504454;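 active = response above a set limit, near 3 SD of response in nonfluorescent compounds, cut at about 42% in these data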;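 also: stock transfer was 100 nL into about 11 µL; a reference agonist was the positive control; negative values mostly stem from fluorescent compounds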
Target sequence (P07550 whole entry, looked up): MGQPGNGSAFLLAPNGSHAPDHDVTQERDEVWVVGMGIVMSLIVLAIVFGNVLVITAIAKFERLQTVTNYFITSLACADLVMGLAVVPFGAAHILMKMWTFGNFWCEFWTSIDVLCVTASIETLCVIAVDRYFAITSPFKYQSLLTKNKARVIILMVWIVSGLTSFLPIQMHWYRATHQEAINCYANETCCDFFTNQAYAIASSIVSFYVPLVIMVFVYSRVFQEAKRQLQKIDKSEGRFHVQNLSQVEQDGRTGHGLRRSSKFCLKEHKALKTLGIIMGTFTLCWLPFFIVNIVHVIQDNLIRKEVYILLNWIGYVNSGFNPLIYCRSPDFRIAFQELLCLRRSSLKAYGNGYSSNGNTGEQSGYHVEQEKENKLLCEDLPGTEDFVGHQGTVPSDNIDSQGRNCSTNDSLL
Ecoli rRNA inh: inhibitors of bacterial rRNA selective over humanized ribosomes; E. coli WT GFP vs humanized-ribosome RFP mutants, fluorescence, 24 h; active compounds read low; DMSO median 0, no signal -100; GFP signal change (wild-type ribosome), % (concentration not given with the values); actives 1.6% (n = 350,000); AID 720706;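 active = significant combined selectivity score with lowered wild-type GFP, culture density cut under 30%, mutant RFP and density less affected; inactive = any of these conditions unmet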; also: one replicate is shown; some compounds called inactive have numbers as strong as hits
ALR H2O2 inh: blocks human ALR sulfhydryl oxidase activity | actives 3.8% (n = 290,000) | P55789 | AID 485317 | inhibition, % (no concentration beside the values) | purified ALR, DTT oxidation, H2O2 HRP-luminol luminescence;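 active = mean and each replicate at 75% or more; inconclusive = only one of the two met; inactive = neither met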;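 also: stock transfer was 7.5 nL into about 7.5 µL; 0% = neutral wells and 100% = wells with inactivated enzyme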
Target sequence (P55789 whole entry, looked up): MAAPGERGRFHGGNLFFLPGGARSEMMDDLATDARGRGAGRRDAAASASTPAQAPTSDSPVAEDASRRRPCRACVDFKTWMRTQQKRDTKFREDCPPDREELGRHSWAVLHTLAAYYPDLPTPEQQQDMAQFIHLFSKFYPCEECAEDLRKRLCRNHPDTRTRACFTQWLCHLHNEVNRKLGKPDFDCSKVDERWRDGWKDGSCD
T cruzi inh: T. cruzi replication inhibition | actives 1.4% (n = 300,000) | inhibition, % (concentration not given with the values) | T. cruzi beta-gal in NIH3T3, luminescence, 90 h | AID 1885;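 active = mean inhibition across valid replicates above about 55%, limit read from the data; inconclusive = mean below that limit but half or more replicates reach it; inactive = mean below it, under half of replicates reach it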;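 also: signal also drops with host cell toxicity which is not excluded here; 0% = plate median of DMSO wells and 100% = zero luminescence signal; higher percent means less beta-gal luminescence so fewer parasites; stock transfer was 50 nL into about 50 µL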
LANA-H2A inh: blocks KSHV LANA binding to histone H2A/H2B; cell-free LANA-H2A/H2B peptide, fluorescence polarization; AID 2629; Q9QR71; actives 0.6% (n = 320,000); inhibition, % (no concentration beside the values); in the data active = inhibition mostly above about 10%, no sharp cut-off; inactive = mostly below about 6.7%;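 also: stock transfer was 7.5 nL into about 10 µL; 0% = median of vehicle wells and 100% = median of positive control wells; one replicate is shown; the record names a cut of 25% in any replicate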
A1 inh: inhibitors of the anti-apoptotic protein A1, read as caspase activation; MEF A1-2A-BIM cells, Caspase-Glo 3/7 luminescence, 3 h; percent of clofoctol response, vehicle zero; caspase activation, % (no concentration beside the values); actives 0.066% (n = 330,000);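 active = over half of replicate activation scores above 10%, or exactly half above 10 with the replicate mean above 10; inconclusive = replicate mean below 10 yet half the replicates above 10; inactive = over half of replicates below 10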;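 also: wells of about 30 µL received 50 nL stock; many hits fall short of the cut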
Beta cell apopt: beta cell apoptosis inhibition. INS-1E cytokine-induced death, ATP luminescence, 48 h; percent of positive-control rescue, neutral wells zero. protection from apoptosis, % (test concentration not listed). actives 0.8% (n = 300,000);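 active = all replicates at 75% or more, or half of them and the mean; inconclusive = half reach 75% but not the mean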;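 also: 0% = cytokine-treated negative control wells and 100% = positive control rescue; higher means more ATP so stronger rescue from cytokine killing; wells of about 40 µL received 100 nL stock; the first replicate is given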
Ecoli rRNA inh OD600: recorded beside Ecoli rRNA inh, whose call it bears; OD600 change, %; measured here: OD600 growth;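 optical density of the mix in the first replicate; 0 = DMSO median and -100 = no signal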
Ecoli rRNA inh RFP: further read-out of Ecoli rRNA inh, marked with its call; RFP signal change, %; measured here: RFP humanized mutant strains;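 first replicate; 0 = DMSO median and -100 = no signal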
Numbers without * were called inactive; ? = inconclusive; / = no result given; & = joins results of further samples. An excerpt, so the mix of outcomes need not match the whole.

structure	T cruzi inh	Beta cell apopt	Calb FLC	A1 inh	Ecoli rRNA inh RFP	LANA-H2A inh	Beta2AR agonist	ALR H2O2 inh	Ecoli rRNA inh	Ecoli rRNA inh OD600
O=C(/C=C/c1ccccc1)c1ccc2c(c1)OCO2	12	0	1	-2.2	-2.4*	-2.8	-3	97*	-24*	-16*
Cc1cc(NC(=O)CSCC(=O)OCC(=O)Nc2ccc(OC(F)F)cc2)no1	/	2	/	0.7	1.7	-11	-2	1	11	5
CSc1ncccc1C(=O)N1CCCC(C(=O)c2ccc3ccccc3c2)C1 (stereo unspecified)	29	-2	4	-0.9	/	-0.5	-20	-6	/	/
CCC1(C)Cc2c(sc3nc(SCC(=O)O)[nH]c(=O)c23)CO1 (stereo unspecified)	-15	2	-1	0.5	/	5.5	4	48	/	/
O=c1c2ccccc2c(/C=N/c2n[nH]c(CCCO)n2)c(O)n1-c1ccccc1Cl	-11	4	4	-1.4	-0.7	-3.4	4	0	-19	-25
CN(c1ccccc1)S(=O)(=O)c1ccc(C(=O)N2CCN(c3ccccc3F)CC2)cc1	/	0	/	0.0	-5.6	-0.3	-1	/	-20	-30
COc1ccc(CNS(=O)(=O)c2cc(-c3cc(C)no3)ccc2C)cc1OC	-4	-3	-10	-0.6	-0.6	7.0	-15	-1	-1	-2
COc1cc(/C=C/c2ccc3cccc(O)c3n2)cc(Br)c1OC	72*	44	1	-1.0	-4.0	-0.8	10	0	-4	-22
O=C(COC(=O)c1cccc(F)c1)Nc1ccc2c(c1)OCCO2	/	0	/	0.1	0.5	-0.8	-1	-5	6	12
CC(C)(C)Oc1ccccc1Nc1nc(NCCO)nc(N2CCCC2)n1	0	-1	-2	-0.7	2.5	-0.6	-5	7	-4	-7
O=C(C1CCCN(S(=O)(=O)c2ccccc2[N+](=O)[O-])C1)N1CCN(c2ccccc2)CC1 (stereo unspecified)	2	0	4	1.4	/	-0.6	-1	11	/	/
Cn1cccc1C(=O)NC(=O)COC(=O)CNS(=O)(=O)c1ccc(Br)cc1	-8	2	-1	-0.3	/	1.0	5	-25	/	/
Cc1ccc(NC(=O)CN(C)C(=O)c2cc(C)on2)cc1	/	1	/	0.2	1.1	1.6	-6	5	20	11
COC(=O)C1=C(Nc2ccc(C)cc2)C=C(C)C(C(=O)OC)C1c1ccc(F)cc1 (stereo unspecified)	36	16	?	1.2	/	0.9	2	-3	/	/
COc1ccc(C(=O)NC(=S)Nc2ccc(S(=O)(=O)Nc3cc(C)on3)cc2)cc1OC	-11	-2	2	0.3	-3.9	7.2	-1	27	4	2
C[C@@H]1CN([C@H](C)CO)C(=O)c2cc(NC(=O)C3CCCCC3)ccc2O[C@@H]1CN(C)Cc1ccncc1	/	-8	/	0.1	-2.1&-2.6	1.9	4	-3	-2&13	-6&1
CN(CC(=O)Nc1ccc(Cl)c(C(F)(F)F)c1)C(=O)CCc1nc2ccccc2c(=O)[nH]1	/	-6	/	1.3	2.9	2.4	-270	-5	1	22
CCCn1nc(C(=O)Nc2ccc3nc(C)sc3c2)c2ccccc2c1=O	5	-1	25	0.5	-1.2	1.5	-1	3	-2	14
COCc1nnc(NS(=O)(=O)c2ccc(NC(C)=O)cc2)s1	-4	-2	-1	-1.1	/	-9.1	0	-23	/	/
COc1ccc(N2CCN(C(=O)COC(=O)COc3ccc(C#N)cc3)CC2)cc1	9	0	-12	0.1	-0.7	1.0	8	66	5	15
CCOCCCn1c(SCC(=O)Nc2ccccc2OC)nc2ccccc2c1=O	5	4	8	1.5	-4.0	2.7	0	-5	-13	-15
Cc1cccc(NC(=S)NC2CCCCC2)n1	-22	11	2	0.2	4.8	-1.6	1	-2	10	5
CN1CCC(=NOc2ccc([N+](=O)[O-])cc2)CC1	35	-1	-3	0.3	2.4	0.9	0	-2	17	7
COc1cccc(N2CCN(c3cnc4ccccc4n3)CC2)c1	12	3	5	-0.6	0.5	5.0	0	53	9	2
Cn1c(N)c(C(=O)COC(=O)c2ccc(Br)o2)c(=O)n(C)c1=O	-11	-5	1	-0.7	6.1	3.1	-8	-8	9	5
CC(C)OCCCNC(=O)[C@H]1N2C(=O)c3ccccc3C2SC1(C)C (stereo partly specified)	-7	-6	-3	2.8	0.6	7.4	0	-22	15	15
Cc1ccccc1OC(C)C(=O)Nc1ccc(S(=O)(=O)Nc2nccs2)cc1 (stereo unspecified)	7	1	0	-0.5	-0.3	1.5	9	-4	-6	-7
Cc1ccccc1NC(=O)C1CCCN1S(=O)(=O)c1cccc2cccnc12 (stereo unspecified)	-5	/	6	-0.3	/	-1.1	6	69	/	/
CN(C)/N=C/C=C1\CC/C(=C\c2ccc(F)c(F)c2)C1=O	-1	2	?	1.5	0.9	-0.3	-4	36	12	6
CCc1nc(C)cn1S(=O)(=O)c1ccc(Cl)c(Cl)c1Cl	27	11	-5	-0.1	/	0.9	2	-1	/	/
Cc1ccc(-c2ccc(/C=N/N3C(=O)C4C5C=CC(CC5)C4C3=O)o2)c([N+](=O)[O-])c1 (stereo unspecified)	13	-10	3	0.4	/	0.1	9	-18	/	/
O=C(c1cnn2c(C(F)(F)F)cc(-c3ccccc3)nc12)N1CCOCC1	9	5	-7	0.4	-0.1	-1.1	2	-5	-3	0
O=C(O)C1CCN(C(=O)OCc2ccccc2)CC1	2	-3	8	-0.1	/	1.8	8	-12	/	/
CCOC(=O)C(=CNc1ccc2c(c1)CCN2C(C)=O)C(=O)OCC	5	0	18	-0.8	/	1.7	-20	-8	/	/
CCCNC(=O)c1oc2ccc3c(c2c1C)C(=O)CC(C)(C)O3	12	2	32	-1.5	/	1.3	-3	-15	/	/
COc1ccc(CN2CN(S(=O)(=O)c3ccccc3)c3nc4ccccc4nc32)cc1	30	-1	?	0.7	-0.5*	6.8	-12	-12	-25*	-17*
CCOc1ccc(OCCC(=O)NNC(=O)c2cc(OC)c(OC)c(OC)c2)cc1	-8	-1	-6	-0.8	2.2	13	83*	2	7	7
CCOc1ccc2c(c1)C(c1ccc(C)o1)=NNC(c1ccncc1)=N2	28	3	-2	-0.3	1.6	3.9	0	-3	4	-1
Cc1cc(C(=O)NC2CCCc3c2cnn3-c2ccc(C(C)(C)C)cc2)n[nH]1 (stereo unspecified)	-2	32	-2	?	2.4	4.3	17	-4	3	3
Cc1c(CNCC(C)c2ccccc2)c(C(=O)O)c(C)n1Cc1ccccc1 (stereo unspecified)	1	-5	1	0.2	-8.9	1.7	2	-1	7	2
CCOC(=O)Cn1c(S(=O)(=O)Cc2cccc(F)c2)nc(-c2ccccc2)c1-c1ccccc1	37	31	3	-0.1	/	-1.6	13	1	/	/
CCN(C(=O)COC(=O)c1c(-c2ccccc2)noc1C)c1c(N)n(Cc2ccccc2)c(=O)[nH]c1=O	-1	-5	?	0.6	1.1	-1.2	1	1	11	3
CCOC(=O)C(C)Sc1nc(N2CCOCC2)c2c(c1C#N)CC(C)(C)OC2 (stereo unspecified)	15	/	-2	0.7	-2.5*	3.5	13	12	-29*	-14*
COc1ccc2cc3c(N)c(C(=O)N4CCCC4)sc3nc2c1	3	-1	-10	-4.5	/	1.9	/	/	/	/
O=C(CN1CCN(C(=O)c2ccco2)CC1)Nc1cc(C(F)(F)F)ccc1Cl	3	3	-5	-0.1	/	2.8	-2	-18	/	/
COc1ccccc1NC(=O)c1ccc(CSc2ncccn2)cc1	5	-2	-5	-1.5	/	3.0	/	-7	/	/
CN(CC(=O)Nc1ccc(F)cc1)CC(=O)N1CCCCCC1	/	-2	/	0.0	-2.8	2.5	2	-4	3	6
CC1(C)OC2C(O1)[C@@H](CO)O[C@H]2n1cnc2c(N)ncnc21 (stereo partly specified)	6	-5	2	0.1	-0.4	-2.4	3	-28	2	2
Cc1cccc(-n2c(O)c(C=NCCCN3CCOCC3)c3ccccc3c2=O)c1	-6	-5	-8	1.0	/	-2.5	-7	1	/	/
Nc1nnc(SCc2ccccc2)n1-c1ccccc1	0	-3	-15	-0.5	/	-4.4	4	-4	/	/
O=C(c1ccccc1)N1N=C(C(F)(F)F)CC1(O)c1ccccc1O (stereo unspecified)	-6	0	-2	-0.3	0.1	4.6	1	0	2	4
CS(=O)(=O)c1nc(-c2cccs2)cc(C(F)(F)F)n1	77*	91*	97*	8.2*	/	0.4	/	99*	/	/
CC(C)(C)C(=O)N1CCN(S(=O)(=O)c2ccc3c(c2)OCCCO3)CC1	5	29	4	-0.4	-2.0	0.7	1	-12	-1	0
Cc1cc(=O)oc2cc3c(cc12)OCO3	10	-2	6	0.3	0.8	-1.0	-7	1	14	2
CCCCCCOC(=O)Nc1ccc(S(=O)(=O)Nc2cccc([N+](=O)[O-])c2)cc1	10	-4	-2	-0.4	-1.4	-12	0	0	0	-20
Cc1ccc(-c2nc(NCCCO)c3ccccc3n2)cc1	24	10	8	0.2	-3.1	9.9	-10	98*	-16	-6
COc1ccc([N+](=O)[O-])cc1NC(=O)C1(c2ccc(OC)c(OC)c2)CCOCC1	2	-5	-14	-0.3	-0.5	-0.1	-4	-7	2	1
COc1cccc(-c2nc(NC3CCCC3)c3ccccc3n2)c1O	29	13	24	-0.2	9.3	-1.3	27	2	-32	-57
COc1ccc(Cl)cc1-n1c(=S)sc2c(=O)[nH]c(SCC(=O)NCCC(C)C)nc21	-3	/	-3	/	-0.7	/	4	/	-3	-6
Oc1ccc(-c2nnc(-c3ccccc3)c(-c3ccccc3)n2)cc1	7	2	-7	-0.1	/	0.3	/	-8	/	/

Additional records
structure	T cruzi inh	Beta cell apopt	Calb FLC	A1 inh	Ecoli rRNA inh RFP	LANA-H2A inh	Beta2AR agonist	ALR H2O2 inh	Ecoli rRNA inh	Ecoli rRNA inh OD600
COc1ccc(CCNC(=O)c2cc(-c3cc(C)c(C)cc3O)n[nH]2)cc1OC	17	1	-4	-0.2	/	-1.1	6	-5	/	/
CCCOc1ccc(Oc2ccc(S(=O)(=O)N3CCN(C)CC3)cn2)cc1	7	-1	-6	-0.5	-2.8	-0.6	-9	-4	2	3
OCCN=C1CCCc2c1[nH]c1ccc(Br)cc21	8	-2	14	0.2	/	-0.2	34	-4	/	/
CC(=O)c1cccc(NC(=O)c2nc(-c3ccccc3)oc2C)c1	-3	-1	12	0.2	-4.3	-0.1	1	/	-29	-47
Cn1ccnc1/C(=N\NC(=O)c1ccc(O)cc1)c1cccc([N+](=O)[O-])c1	8	0	-2	-0.7	-4.0	5.0	3	10	4	-6
CCOc1ccc(-c2cnc(NCc3cccc4ccccc34)n2CCOC)cc1	72*	41	21	-0.2	-10	-1.3	13	-1	-46	-77
CC1(C2CC2)NC(=O)N(CC(=O)Nc2cc(S(=O)(=O)N3CCCCC3)ccc2Cl)C1=O (stereo unspecified)	/	-11	/	1.6	0.7	1.9	7	/	-1	-2
Cc1cc(Cl)ccc1NC(=S)NCc1cccs1	-18	-1	-3	0.1	/	2.0	0	24	/	/

Screening data as filed in PubChem.
